RE007 growth inh: less growth of the S. pombe RE007 Vpr strain | S. pombe RE007 Vpr strain, BacTiter-Glo ATP luminescence, 24 h; control for the full effect not named in the record | Potency, µM (top dose mostly 92.2 µM), for inactives: at the highest dose activity change, negative = less growth | 0.21% of 360,000 active | AID 651644; active = well fitted falling curve with a large enough effect; inconclusive = small, poorly fitted or top-dose-only effect; inactive = no such curve, though single readings can be large or run the other way;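 further: on the % scale 0 is the no-effect control and ±100 the full control effect; nearly all actives have a fitted effect of over 50% in size; the assay follows cell death caused by Vpr and the record does not say whether a fall means rescue or toxicity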
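Fission yeast RE007 carrying one integrated HIV-1 vpr copy, seeded at OD 0.01 in PMG+AL medium with 23 nL pinned compound. Grown 24 h at 30 degrees; viability read by BacTiter-Glo luminescence after 5 min.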
NS1 inh: influenza NS1 inhibition | S. cerevisiae slowed by influenza A NS1, growth recovery by OD600 | Potency, µM (titrated, usually from 46.1 µM), without a hit: at the highest dose activity, positive = more growth | 0.4% of 270,000 active | AID 2326; active means well fitted rising curve with a large enough effect; inconclusive means small, poorly fitted or top-dose-only effect; inactive means no such curve, though single readings can be large or run the other way; further: nearly all actives have a fitted effect of over 50% in size
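Recovery from NS1-induced slow growth read by OD600 in budding yeast switched to galactose assay medium (pH 6.0, -URA) at 1:100 dilution. Compound 23 nl per well; the matching strain lacking NS1 serves as control.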
LASV entry inh: blocks Lassa virus binding to or entry into cells | Lassa virus pseudotype entry inhibition, cell reporter; control for the full effect not named in the record | Potency, µM (doses to about 37.9 µM), inactives show at the highest dose activity change, negative = inhibition, hits mostly inhibitors | 1.2% of 300,000 active | AID 540256; active means well fitted inhibition curve with a large enough effect; inconclusive means small, poorly fitted or top-dose-only effect, or effect the other way; inactive means flat fitted curve, though single readings scatter; tested in HEK293 cells; further: on the % scale 0 is the no-effect control and ±100 the full control effect; nearly all actives have a fitted effect of over 50% in size; luciferase read-out
StopGo reporter: FMDV 2A StopGo reporter, luciferase signal | human cells with a luciferase reporter of 2A StopGo recoding; control for the full effect not named in the record | Potency, µM (series often up to 57.9 µM), for inactives: at the top dose signal change, negative = less light | 1.2% of 410,000 active | AID 1159524; active = well fitted falling curve with a large enough effect; inconclusive = small, poorly fitted or top-dose-only effect; inactive = no such curve, though single readings can be large or run the other way; tested in HEK293T cells; further: on the % scale 0 is the no-effect control and ±100 the full control effect; nearly all actives have a fitted effect of over 45% in size; luciferase light after 4 h
MARV entry inh: blocks Marburg virus binding to or entry into cells | Marburg virus pseudotyped entry inhibition, cell reporter; control for the full effect not named in the record; about a third of the inactives were read at about 46 µM | Potency, µM (titrated, usually from 37.8 µM), inactives show at the top dose activity change, negative = inhibition, usual class: inhibitors | 1.8% of 300,000 active | AID 540276; active = well fitted inhibition curve with a large enough effect; inconclusive = small, poorly fitted or top-dose-only effect, or effect the other way; inactive = flat fitted curve, though single readings scatter; tested in HEK293 cells; about a fifth of its hits are not listed in these tables; further: on the % scale 0 is the no-effect control and ±100 the full control effect; luciferase read-out
Cruzain inh noDet: inhibitors of Trypanosoma cruzi cruzain without detergent | 2.3% of 200,000 active | AID 1476 | purified cruzain, Z-FR-AMC fluorescence, no detergent | Potency, µM, without a hit: max response, negative = inhibition, actives largely listed as inhibitors;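 further: plate controls were enzyme without inhibitor for no effect and buffer without enzyme for full effect; nearly all actives have a fitted effect of over 40% in size; top concentration of the series not given in the record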
Target sequence (P25779 123-467 limits assumed): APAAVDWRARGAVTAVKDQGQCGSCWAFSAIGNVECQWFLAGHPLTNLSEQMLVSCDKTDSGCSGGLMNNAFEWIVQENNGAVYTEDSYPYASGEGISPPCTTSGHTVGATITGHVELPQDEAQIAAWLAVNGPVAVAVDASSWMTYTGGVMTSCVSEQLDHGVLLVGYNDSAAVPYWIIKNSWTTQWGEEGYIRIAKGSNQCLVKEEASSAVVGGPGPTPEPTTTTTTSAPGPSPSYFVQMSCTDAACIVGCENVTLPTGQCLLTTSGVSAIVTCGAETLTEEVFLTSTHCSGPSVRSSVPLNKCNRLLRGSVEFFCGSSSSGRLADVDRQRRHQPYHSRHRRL
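Detergent-free condition (0.00005% Triton X-100) in acetate buffer pH 5.5 with DTT. 1.5 nM enzyme and compound were pre-mixed 15 min, then 2 uM Z-FR-AMC substrate added; reaction progress from fluorescence change between first and third reads (60 s).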
Cruzain inh Det: blocks cruzain activity in presence of Triton detergent; purified cruzain, Z-FR-AMC fluorescence, 0.01% Triton; P25779; 0.43% of 200,000 active; Potency, µM, inactives show max response, negative = inhibition, usual class: inhibitors;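 further: plate controls were neutral wells for no effect and buffer without enzyme for full effect; nearly all actives have a fitted effect of over 40% in size; top concentration of the series not given in the record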
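In this qHTS format, compounds are incubated with 1.5 nM cruzain for 15 min at room temperature before 2 uM Z-FR-AMC is added. Release of AMC is followed at 360/450 nm, and progress is taken as the 60 s fluorescence difference.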
SARS PLP yeast: inhibitors of SARS-CoV papain-like protease in yeast. S. cerevisiae expressing SARS-CoV PLpro, growth rescue; control for the full effect not named in the record. Potency, µM (highest dose often 32.9 µM), for the others: top-dose activity, positive = growth rescue. 0.19% of 330,000 active; active means well fitted rising curve with a large enough effect; inconclusive means small, poorly fitted or top-dose-only effect; inactive means no such curve, though single readings can be large or run the other way; further: 0% is about no effect; nearly all actives have a fitted effect of over 55% in size; growth read by luminescence after 48 h
An asterisk follows results filed as active; ? = inconclusive; nt = no result given; & = joins results of further samples; [ ] = another dose, or the depositor's remark. Unless noted, the call rests on the fitted dose curve; in most records, active means well fitted curve in the direction sought with a large enough effect; inconclusive means small, poorly fitted or top-dose-only effect, or another doubt; inactive means no such curve, though single readings can be large; an effect the other way counts as inactive or inconclusive. Potency means the concentration at half of the fitted maximal effect.

no. | compound | RE007 growth inh | Cruzain inh Det | NS1 inh | Cruzain inh noDet | SARS PLP yeast | MARV entry inh | StopGo reporter | LASV entry inh
1 | CCc1ccc(CNCc2cccnc2)cc1 | -14% | 5.0% | -1% | -6% | 1% | 17%[46.1 µM] | -1% | -3%
2 | CCc1ccc2[nH]c(=O)c(CN(Cc3ccco3)C(=S)NCC3CCCO3)cc2c1 (stereo not given) | -18% | nt | -5% | nt | -2% | -16%[46.1 µM] | -25% | 6%
3 | O=C(COC(=O)Cc1ccc(S(=O)(=O)N2CCCCC2)s1)Nc1ccc2c(c1)OCO2 | 25% | -9.7% | 3% | 10µM* | -3% | -1% | -6% | 4%
4 | Cc1ccc(CN2C(=O)c3ccccc3Sc3ccc(C(=O)OCc4ccco4)cc32)cc1 | nt | -2.1% | nt | -13% | nt | nt | -7% | -24%[46.1 µM]
5 | Cc1nn(C(C)C(=O)NCc2cccc(F)c2)c(=O)c2c1sc1ccccc12 (stereo not given) | nt | ? | nt | -3% | nt | -5%[46.1 µM] | -14% | -2%[46.1 µM]
6 | O=C(NC(n1ccc(=O)[nH]c1=O)C(Cl)(Cl)Cl)C12CC3CC(CC(C3)C1)C2 (stereo not given) | -19% | nt | -7% | nt | ? | 0%[46.1 µM] | -29% | ?
7 | COc1cccc(C2c3[nH]c4ccccc4c3C[C@H]3C(=O)N(C)CC(=O)N23)c1 (stereo not given in full) | -3% | nt | -3% | nt | 2% | nt | 6% | nt
8 | CCOc1c(CNCCSc2nnnn2C)cccc1OC | nt | 0.7% | nt | 0% | nt | -25%[46.1 µM] | -6% | 22%[46.1 µM]
9 | CC(C)C(=O)Nc1ccc([N+](=O)[O-])cc1Br | -11% | -4.0% | -3% | -13% | -3% | -9% | -7% | ?
10 | COC(=O)c1cc(NS(=O)(=O)c2cccc(Cl)c2)ccc1N1CCOCC1 | 32% | nt | -5% | nt | -2% | nt | -4% | nt
11 | COC(=O)c1c(C)oc2ccc(N(C(=O)Oc3ccccc3)S(=O)(=O)c3ccc(C(C)(C)C)cc3)cc12 | nt | -1.0% | nt | -4% | nt | nt | -24% | ?
12 | C=CCNC(=O)Nc1ccc(Br)cc1Cl | 1% | nt | -5% | nt | 1% | nt | -6% | nt
13 | Cc1cc([N+](=O)[O-])nn1CCCC(=O)NCc1ccccc1 | 1% | -1.8% | 12% | -1% | 3% | 12% | -10% | 1%
14 | CCn1cc(C(=O)O)c(=O)c2cc(F)c(N3CCN(S(=O)(=O)c4ccc(Br)cc4)CC3)cc21 | nt | -19% | 12% | ? | 6% | 6% | nt | nt
15 | CCc1ccc(CN2CCC(N3CCC(C(=O)N4CCCC4)CC3)CC2)o1 | -2% | nt | -5% | nt | 1% | nt | -1% | nt
16 | Nc1ccc2oc(-c3cc(Br)ccc3Cl)nc2c1 | -2% | 4.1% | 15% | -7% | -5% | ? | ? | ?
17 | O=C(c1nc2ncccn2n1)N1CCN(c2ccccc2)CC1 | -25% | 7.2% | 4% | 7% | nt | -1% | -8% | 1%
18 | Cc1ccc(S(=O)(=O)NCc2ccc(C(=O)N3CCN(c4ccccc4)CC3)cc2)cc1 | -2% | nt | -10% | nt | 5% | ? | -19% | ?
19 | CCC1CCC(C(=O)NC(C(=O)Nc2ccc3c(c2)OCCO3)C(C)C)CC1 (stereo not given) | -5% | 0.4% | 5% | ? | 6% | ? | 15% | 14%
20 | CC1CCCCC1NC(=O)Cn1nc(-c2ccccc2)ccc1=O (stereo not given) | -2% | 3.2% | 0% | -4% | 0% | 17%&17% | nt | 0%
21 | CC(=O)Nc1ccc(Oc2ccc3nc(C)[nH]c3c2)cc1 | -7% | 1.0% | 2% | -3% | 3% | 6%[46.1 µM] | -2% | 8%
22 | Cc1ccc(C)c(S(=O)(=O)N2C(=S)NC(=O)C2C(C)C)c1 (stereo not given) | 46% | 2.0% | -144% | -4% | -18% | 1% | -7% | -8%
23 | Cc1[nH]c2ccccc2c1C(=O)CN1CCN(C/C=C/c2ccccc2)CC1 | -10% | 2.5% | 10% | 4% | -2% | ? | ? | ?
24 | CCOc1ccc(NC(=O)NC2CCCc3ccccc32)cc1 (stereo not given) | 13% | nt | 11% | nt | 4% | nt | 0% | nt
25 | CCOC(=O)c1cnc(-n2nc(C)cc2C)nc1Nc1ccc2c(c1)OCO2 | nt | 2.9% | -45% | 5% | 5% | -5% | nt | nt
26 | N#CCC(=O)Nc1ccc(C(=O)OCC(=O)c2ccc3c(c2)OCO3)cc1 | -2% | nt | nt | nt | 2% | 1%[46.1 µM] | 16% | ?
27 | Fc1ccc(-c2cc(C(F)(F)F)nc(NCC3CCCO3)n2)cc1 (stereo not given) | ? | -6.9% | -55% | ? | -40% | 5% | ? | -7%
28 | COc1ccc(S(=O)(=O)N2CCN(C3CC4CCC3C4)CC2)cc1 (stereo not given) | -5% | nt | -8% | nt | 2% | 4%[46.1 µM] | -16% | ?
29 | CCCCN(C(=O)c1cc2ccccc2o1)c1c(N)n(CCC)c(=O)[nH]c1=O | -4% | 0.1% | -4% | -8% | 15% | 1%[46.1 µM] | 1% | -8%
30 | Cn1c2ccc(CC(=O)O)cc2c2cc(CC(=O)O)ccc21 | 10% | -5.6% | 2% | -11% | 1% | 3% | nt | -7%
31 | COc1ccccc1CC(=O)NNC(=O)c1ccco1 | -10% | nt | 4% | nt | -1% | 11% | 9% | 5%
32 | CC(C)CC(=O)N=C1SC2CS(=O)(=O)CC2N1Cc1ccccc1 (stereo not given) | -2% | -0.1% | 10% | -15% | 15% | ? | -9% | 1%
33 | COCCNC(=O)CCSc1nc(-c2ccc(OC)cc2)cc(C(F)(F)F)n1 | -11% | -15%&-10% | 11% | ? | -11% | ? | ? | 12%[46.1 µM]
34 | Cc1ccccc1OCCN1C(=O)c2ccccc2C1=O | -15% | -6.7% | -8% | 12% | -7% | 0% | nt | 3%
35 | O=c1o[nH]c(-c2ccccc2)c1-c1ccccc1 | 2% | nt | nt | nt | nt | -1%[46.1 µM] | -23% | -3%
36 | CC1CCN(c2ccc(C(=O)NCc3ccc4c(c3)OCO4)cc2[N+](=O)[O-])CC1 | 25% | -9.8% | -4% | 11% | -25% | -17% | 33%[activator] | -5%
37 | O=S(=O)(c1cc(Cl)ccc1Cl)N1CCN(Cc2ccco2)CC1 | 2% | nt | 2% | nt | -6% | 5% | -9% | -10%
38 | CC(C)(C)NS(=O)(=O)c1cc(C(=O)O)ccc1Cl | 1% | nt | nt | nt | -1% | ? | -13% | 6%[46.1 µM]
39 | O=C1CC(c2ccc(S(=O)(=O)NC3CC3)cc2)CN1 (stereo not given) | 11% | 4.3% | ? | -15% | -2% | 8% | -1% | nt
40 | CCCCCSc1nc2sc3c(c2c(=O)n1-c1ccc(OC)cc1)CCN(C(C)=O)C3 | nt | -30% | nt | ? | nt | 4%[46.1 µM] | 0% | -1%[46.1 µM]
41 | O=C(O)Cc1cn(Cc2ccc(F)cc2)c2ccccc12 | -12% | nt | nt | nt | -1% | ? | 3% | -8%[46.1 µM]
42 | CCn1nc(C)cc1C(=O)NC1CCCc2c1cnn2-c1ccc(C)c(C)c1 (stereo not given) | 30% | nt | -56% | nt | -9% | ? | 10µM* | ?
43 | CC(Oc1ccc2c(=O)c(-c3ccc(Cl)cc3)c(C(F)(F)F)oc2c1)C(=O)O (stereo not given) | 9% | nt | 5% | nt | 0% | nt | -11% | nt
44 | Cc1ccnc(NS(=O)(=O)c2ccc(N=CC3=C(O)CC(C)(C)CC3=O)cc2)n1 | -11% | -2.1% | -4% | -5% | ? | -10% | 30% | 5%
45 | COc1ccc(-c2nc3c(C#N)c[nH]n3c2NC2CCCCC2)cc1 | nt | -2.7% | nt | -10% | nt | 0%[46.1 µM] | 0% | 18%[46.1 µM]
46 | Cc1ccc(NC(=O)Cn2c(=O)n(CCC(=O)N3CCc4ccccc4C3)c(=O)c3ccccc32)cc1 | nt | -2.1% | nt | 2% | nt | -18%[46.1 µM] | 4% | 0%[46.1 µM]
47 | Cc1cccc(C)c1NC(=O)c1ccc(CN2CCc3ccccc3C2)cc1 | -14% | 5.6% | 1% | 5% | 0% | -23% | ? | -6%
48 | COc1ccc(/C=C2\Sc3ccc(C(=O)N4CCN(Cc5ccccc5)CC4)cc3N(C)C2=O)cc1OC | 1% | nt | -1% | nt | -13% | nt | 13µM* | nt
49 | Cn1c(=O)c(N)c2c3c(c(Br)ccc31)C(=O)c1ccccc1-2 | 23% | nt | -3% | nt | -2% | nt | ? | nt
50 | COc1ccc(-c2nnc(SCC(=O)Nc3cc(C)on3)n2C)cc1OC | 9% | 10% | -2% | 12% | 4% | 29% | -17% | 22%
51 | Cc1nc(N=Nc2ccc(O)cc2)n[nH]1 | ? | nt | 3% | nt | -3% | nt | 39%[activator] | nt
52 | Cn1c(-c2ccc(C(=O)c3ccccc3)s2)nc2ccccc21 | -2% | nt | 13% | nt | nt | ? | 21% | ?
53 | O=C(OCc1ccc(COC(=O)c2ccc(O)cc2)cc1)c1ccc(O)cc1 | 18% | nt | 2% | nt | 0% | ? | ? | ?
54 | CN(C)C(=O)CSc1nnc([C@H](Cc2c[nH]c3ccccc23)NC(=O)OC(C)(C)C)o1 | 6% | -21% | -5% | ? | 2% | 19%&2% | 8% | -30%
55 | COc1ccc(CCNc2nc(SCc3cccc(Cl)c3)nc3ccccc23)cc1OC | nt | -2.1% | nt | 5% | nt | nt | ? | 13%[46.1 µM]
56 | COc1ccc(C)cc1NC(=O)c1nnn(Cc2cc(C)ccc2C)c1N | 1% | -2.8% | 10% | -9% | 3% | nt | -26% | nt
57 | O=C(c1ccc(Br)cc1)N1CCCc2ccccc21 | 31% | nt | -54% | nt | -5% | 1% | -2% | 0%
58 | Cc1ccc(C(OCC(C)(C)C[N+](C)(C)C)c2ccccc2)cc1 (stereo not given) | -16% | nt | nt | nt | 2% | ? | 12% | -28%[46.1 µM]
59 | CC1=CCC2C(=O)N(Cc3ccccc3)C(=O)C2C1 (stereo not given) | -4% | 2.6% | 5% | -6% | -2% | 1% | -24% | -4%
60 | O=[N+]([O-])c1ccc2nc(NN=Cc3ccc(O)cc3)sc2c1 | 5% | nt | nt | nt | nt | ? | -3% | -25%[46.1 µM]

Screening results as filed in PubChem.

This is a random part of the collection. About 4.7% of those tested had a hit in this group.
